High-throughput results: PubChem, Johns Hopkins Ion Channel Center
KCNQ2 inh: KCNQ2 channel blockers in CHO-K1 cells – cell-based, FluxOR thallium flux, B-score, primary screen (AID 2156) | O88943 | 20 min; hits give low values; only compounds with negative scores are shown here; some inactives read as strong as hits | B-score at 10 µM | hit rate 1.1% among 310,000;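 active means fluorescence ratio B-score at most minus 3 library SDs, with starting brightness B-score within 2 library SDs, cut at about -5.5 in these data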
Target sequence (O88943 whole entry, looked up): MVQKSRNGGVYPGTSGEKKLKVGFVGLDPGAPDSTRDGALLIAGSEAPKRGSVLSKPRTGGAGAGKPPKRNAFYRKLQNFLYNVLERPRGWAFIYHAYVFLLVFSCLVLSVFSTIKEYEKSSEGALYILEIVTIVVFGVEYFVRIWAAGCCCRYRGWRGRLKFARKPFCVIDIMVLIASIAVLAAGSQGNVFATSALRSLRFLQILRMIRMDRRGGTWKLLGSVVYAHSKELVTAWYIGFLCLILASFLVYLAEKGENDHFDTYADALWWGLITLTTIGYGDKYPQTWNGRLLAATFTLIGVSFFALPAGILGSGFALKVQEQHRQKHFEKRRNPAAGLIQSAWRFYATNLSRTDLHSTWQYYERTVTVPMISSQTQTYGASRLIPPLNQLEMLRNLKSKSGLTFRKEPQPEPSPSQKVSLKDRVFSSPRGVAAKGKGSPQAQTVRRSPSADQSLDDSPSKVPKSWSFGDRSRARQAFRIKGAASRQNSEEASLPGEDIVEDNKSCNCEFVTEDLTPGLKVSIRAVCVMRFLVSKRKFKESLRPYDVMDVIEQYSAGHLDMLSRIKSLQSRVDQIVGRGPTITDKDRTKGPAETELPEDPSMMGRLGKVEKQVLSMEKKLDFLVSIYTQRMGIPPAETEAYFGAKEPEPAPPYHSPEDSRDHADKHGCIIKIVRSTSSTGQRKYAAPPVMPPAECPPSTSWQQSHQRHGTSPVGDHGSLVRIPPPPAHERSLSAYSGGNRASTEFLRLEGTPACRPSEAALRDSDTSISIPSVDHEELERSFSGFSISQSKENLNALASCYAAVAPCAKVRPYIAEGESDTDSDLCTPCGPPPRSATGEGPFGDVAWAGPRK
KCNQ2 inh baseline: also measured in KCNQ2 inh; calls as there; B-score; measured here: initial fluorescence intensity artifact check;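 brightness before thallium and not channel activity; 0 = typical well and far values either way flag optical interference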
The depositor's hits bear a star; i = inactive. These rows are one share of the data. The share of hits here may be higher or lower than overall.

Screens in order – KCNQ2 inh	KCNQ2 inh baseline
1) NS(=O)(=O)c1ccc(NC(=O)c2ccc3c(c2)CCCC3)cc1
 : i	-0.71
2) O=c1[nH]c(/C=C\c2ccc(O)c(Cl)c2)nc(O)c1[N+](=O)[O-]
 : i	1.44
3) CNC(=S)N(Cc1ccco1)Cc1cc2cc(OC)ccc2[nH]c1=O
 : i	-1.2
4) CN(C)c1nc(-c2ccccc2)c2cnn(Cc3ccccc3)c2n1
 : i	-0.65
5) COCCn1c(SCC(=O)N2CCCc3ccccc32)nc2c(c1=O)SC(C)C2 (configuration not stated)
 : i	0.33
6) O=C(Nc1nn[nH]n1)c1cc(-c2ccc(Cl)c(Cl)c2Cl)nc2ccccc12
 : i	-0.4
7) Cc1ccccc1-c1nnc(SCc2ccccc2F)o1
 : i	-0.6
8) Clc1ccc(N=C2SCC3CCCCN23)cc1 (configuration not stated)
 : i	-4.06
9) Cc1ccc(S(=O)(=O)N2CCC(c3nc4c(nnn4Cc4ccccc4)c(=O)[nH]3)CC2)cc1
 : i	-1.17
10) CN(CC(=O)Nc1c(Cl)cccc1Cl)C(=O)c1cccn1C
 : i	-1.33
11) Nc1ccc(CN2CCOCC2)cc1
 : i	-0.07
12) NNC(=S)NC1CCCCCCCCCCC1
 : -6.88*	-1.07*
13) Cc1cc(=O)[nH]c(SCC(=O)Nc2cccc3ccccc23)c1C#N
 : i	0.71
14) Cc1c(C(=O)Nc2ccc(S(=O)(=O)N3CCOCC3)cc2)cccc1[N+](=O)[O-]
 : i	-0.06
15) O=S(=O)(Cc1ccccc1)N1CCC(c2nc(-c3cccs3)no2)CC1
 : i	0.23
16) COc1cc(Cl)ccc1NC(=O)COc1ccccc1C(=O)N1CCN(c2ccc(O)cc2)CC1
 : i	1.77
17) COc1cc(OC)cc(C(=O)NCCCn2ccnc2)c1
 : i	1.71
18) CC(C)CC(=O)O/N=C1\C(=O)N(Cc2ccc(Cl)cc2)c2ccc([N+](=O)[O-])cc21
 : i	6.1
19) O=C(NCCCN1CCc2ccccc2C1)Nc1ccc(Br)cc1
 : i	0.38
20) Cc1ccc(C)c2[nH]c(=O)c(CN(CCN3CCCC3)C(=O)Nc3ccc(F)cc3)cc12
 : i	0.42

Profiles from above.
Cc1ccccc1-c1nnc(SCc2ccccc2F)o1 is listed with KCNQ2 inh: i; KCNQ2 inh baseline: -0.6
COc1cc(OC)cc(C(=O)NCCCn2ccnc2)c1 is listed with KCNQ2 inh: i; KCNQ2 inh baseline: 1.71

Next entries.
Screens in order – KCNQ2 inh	KCNQ2 inh baseline
21) Cc1ccc(S(=O)(=O)c2nnn3c2nc(NCCCN2CCCC2=O)c2ccccc23)cc1C
 : i	-0.81
22) Cc1noc(C)c1CSCC(=O)N1CCN(c2ccc(F)cc2)CC1
 : i	0.09
23) NC(=O)CC(NC(=O)c1ccccc1)c1ccc(N2CCN(c3ccccc3)CC2)c([N+](=O)[O-])c1 (configuration not stated)
 : i	-2.7
24) CN1CCN(S(=O)(=O)c2cccc(C(=O)N(c3ccccn3)C3CCCCC3)c2)CC1
 : i	1.15
25) C/C(CC(=O)NCc1ccco1)=N\NC(=O)Cc1ccccc1
 : i	-0.31
26) C=CCN(CC(=O)c1sc(C(=O)OCC)nc1C)c1cccc(Br)c1
 : i	0.95
27) CCC(C)Sc1nc2c([nH]c3ccccc32)c(=O)n1C (configuration not stated)
 : i	0.37
28) Cc1cc(C)n(S(=O)(=O)/C=C/c2ccccc2)n1
 : i	1.45
29) COc1ccc(S(=O)(=O)N2CCCOC2CNC(=O)C(=O)NCc2ccncc2)cc1 (configuration not stated)
 : i	0.01
30) Cc1cccc2c(C(=O)Nn3cnnc3)cc(-c3ccccc3Cl)nc12
 : i	-0.42
31) CCOc1cc(-c2nc3ccccn3c2NCC2CCCO2)ccc1O (configuration not stated)
 : -9.55*	-2.77*
32) Cc1ccc(-c2nn(-c3cccc(F)c3)cc2CNCCc2ccncc2)o1
 : i	-0.53
33) CC(=O)Nc1ccc(S(=O)(=O)C(C#N)c2nc3ccccc3nc2NCCN2CCOCC2)cc1 (configuration not stated)
 : i	0.75
34) CC(=O)Oc1ccc(N(C(C)=O)S(=O)(=O)c2cccs2)c2ccccc12
 : i	1.33
35) CCCNC(=O)c1ccc(N2CCC3(CC2)CC(c2cccc(Br)c2)=NO3)c([N+](=O)[O-])c1
 : i	-0.95
36) CNS(=O)(=O)c1cccc(C(=O)Nc2cccnc2)c1
 : i	-1.21
37) CCOc1ccc(C(=O)Nc2ccc3c(c2)C(=O)NC3=O)cc1
 : i	0.08
38) Cc1ccc(S(=O)(=O)N2CCOC2CNC(=O)C(=O)NCCc2ccccc2)cc1 (configuration not stated)
 : i	-1.69
39) Cc1ccc(-c2noc(CNC(=O)COc3ccccc3C)n2)cc1
 : i	-1.42
40) COc1cccc(CC(=O)N2CCCC(CO)(Cc3ccc(F)cc3F)C2)c1 (configuration not stated)
 : i	2.19

Excerpt: compounds 21 to 26
Screens in order – KCNQ2 inh	KCNQ2 inh baseline
21) Cc1ccc(S(=O)(=O)c2nnn3c2nc(NCCCN2CCCC2=O)c2ccccc23)cc1C
 : i	-0.81
22) Cc1noc(C)c1CSCC(=O)N1CCN(c2ccc(F)cc2)CC1
 : i	0.09
23) NC(=O)CC(NC(=O)c1ccccc1)c1ccc(N2CCN(c3ccccc3)CC2)c([N+](=O)[O-])c1 (configuration not stated)
 : i	-2.7
24) CN1CCN(S(=O)(=O)c2cccc(C(=O)N(c3ccccn3)C3CCCCC3)c2)CC1
 : i	1.15
25) C/C(CC(=O)NCc1ccco1)=N\NC(=O)Cc1ccccc1
 : i	-0.31
26) C=CCN(CC(=O)c1sc(C(=O)OCC)nc1C)c1cccc(Br)c1
 : i	0.95

Further structures:
Screens in order – KCNQ2 inh	KCNQ2 inh baseline
41) Cc1nn(-c2ccccc2)c(/N=C/c2ccc(O)cc2)c1-c1ccccc1
 : i	0.02
42) C=C1C(=O)[C@@]23[C@H](O)C[C@@H]4C(C)(C)CC[C@H](O)[C@@]4(C)[C@@H]2CC[C@@H]1[C@H]3O
 : i	-0.09
43) CCOc1ccc(-n2c(C)c(C(C)=O)c3cc(O)ccc32)cc1
 : i	0.19
44) O=C(CN1C(=O)NC(Cc2c[nH]c3ccccc23)C1=O)Nc1cccc(S(=O)(=O)N2CCOCC2)c1 (configuration not stated)
 : i	-0.13
45) Cc1ccc(C)c(C(=O)NC2CC(C)(C)NC(C)(C)C2)c1
 : i	0.59
46) Cc1ccc(C(=O)/C=C/c2ccc3c(c2)OCO3)o1
 : i	1.07
47) CCn1ccnc1C(O)c1ccc(N(C)C)cc1 (configuration not stated)
 : i	0.46
48) O=C(c1ccccc1)N1CCN(c2ccc([N+](=O)[O-])c(NCc3cccnc3)c2)CC1
 : i	0.01
49) O=C(N=Nc1c(O)[nH]c2ccc([N+](=O)[O-])cc12)c1ccccc1Cl
 : i	-1.19
50) COc1cccc(OC)c1/C(O)=C(\C#N)c1nc2ccccc2[nH]1
 : i	0.93
51) Cc1ccc(-c2cc(C(=O)N3CCCCCC3)no2)cc1
 : i	-0.2
52) Cc1ccc(OCCCCN2CCCCC2)cc1
 : i	-1.46
53) CCOC(=O)C1=NOC(CNC(=O)c2c(-c3ccccc3Cl)noc2C)C1 (configuration not stated)
 : i	-0.06
54) CNC(=O)NC(=O)CSc1nc(-c2cccs2)c(C#N)c(=O)[nH]1
 : i	-1.38
55) COc1ccc(CC(=O)N2CCN=C2SC)cc1OC
 : i	-0.02
56) CN1CCN(CCNC(=O)c2cc3c(=O)n(C)c4ccccc4c3n2C)CC1
 : i	0.09
57) Fc1nc(N2CCCC2)c(F)c(Oc2ccccc2Oc2c(F)c(F)nc(N3CCCC3)c2F)c1F
 : i	-2.39
58) O=C(Nc1ccc(Cc2ccncc2)cc1)c1cc([N+](=O)[O-])ccc1N1CCOCC1
 : i	-0.65
59) COc1ccc(CNC(=O)CC2Sc3ccccc3NC2=O)cc1 (configuration not stated)
 : i	-1.09
60) C=CCN1C(=O)[C@@H]2Cc3c([nH]c4ccccc34)C(c3cc(OC)c(OC)c(OC)c3)N2C1=S (some centres not stated)
 : -6.12*	-0.27*
61) CC1CN(C(=O)c2ccccc2Nc2ccc(SC(F)F)cc2)CC(C)O1 (configuration not stated)
 : i	-1.43
62) CC(C)c1c(C(=O)N/N=C/c2cccc3ccccc23)nnn1-c1nonc1N
 : i	-0.43
63) COc1ccc(CCNC(=O)C(=O)NCc2ccc(Cl)cc2)cc1OC
 : i	0.61
64) CCC(C)Sc1ccc([C@H]2N[C@@](CC(C)C)(C(=O)OC)[C@H]3C(=O)N(C)C(=O)[C@@H]23)cc1 (some centres not stated)
 : i	0.53
65) CCOc1ccc(C(=O)N/N=C(\c2ccccc2)c2ccccn2)cc1
 : i	1.91
66) COc1cccc(C2c3[nH]c4ccccc4c3CCN2Cc2cccn2-c2ncccn2)c1 (configuration not stated)
 : i	2.17
67) COc1cccc(N2CCN(c3ncnc4c3[nH]c3ccc(F)cc34)CC2C)c1 (configuration not stated)
 : -11.2*	0.1*
68) CCN(CC)c1ccc(CNC(=O)C/C(C)=N/NC(=O)COc2ccc(C)cc2Br)cc1
 : i	0.31
69) O=C(CCCc1ccccc1)c1ccc2c(c1)OCCO2
 : i	-0.05
70) Nc1oc2ccccc2c1C(=O)Cc1ccccc1O[C@@H]1O[C@H](CO)[C@@H](O)[C@H](O)[C@H]1O
 : i	-0.15
71) COc1ccc(-c2csc3ncnc(N4CCN(CCO)CC4)c23)cc1
 : i	0.28
72) COc1ccc(S(=O)(=O)N2C3CCC2CC(NC(=O)C2CC2)C3)cc1 (configuration not stated)
 : i	-1.92
73) Cc1ccc(-c2noc(CN(C(=O)c3cccc(Br)c3)C(C)C)n2)cc1
 : i	1.69
74) CCOC(=O)C(C)Oc1c(Br)cc(C2NC(=O)NC(C)=C2C(C)=O)cc1OCC (configuration not stated)
 : i	1.46
75) CC(C(=O)N=c1sc2ccccc2n1C)N1C(=O)C2CC=CCC2C1=O (configuration not stated)
 : i	-0.06
76) CCCN(C(=O)c1ccccc1N)c1c(C)n(C)n(-c2ccccc2)c1=O
 : i	-0.76
77) NS(=O)(=O)c1ccc(NC(=O)CSc2nnc(-c3cnccn3)n2-c2ccccc2)cc1
 : i	-0.59
78) CC(=O)OC(C#CCN1CCOCC1)c1ccccc1 (configuration not stated)
 : i	-1.24
79) COc1ccc(N2CC(C(=O)Nc3ccc([N+](=O)[O-])cc3Br)CC2=O)cc1 (configuration not stated)
 : i	0.14
80) O=C(NCCN1C(=O)S/C(=C\c2ccc(Cl)cc2)C1=O)c1ccc(F)c(S(=O)(=O)N2CCOCC2)c1
 : i	0.52
81) CC(C)N1CCN(Cc2ccc3nsnc3c2)CC1CCO (configuration not stated)
 : i	-1.65
82) O=C(CN1CCC(NC(=O)C2CC2)CC1)Nc1ccccc1[N+](=O)[O-]
 : i	-2.32
83) COc1ccc(NC(=O)CSc2nc3c(c(=O)n2-c2ccc(C)cc2)SCC3)c(OC)c1
 : i	1.17
84) O=C1CCC([N+](=O)[O-])C(c2cc3c(cc2Br)OCO3)N1 (configuration not stated)
 : i	0.18
85) COc1ccc(CNC(=O)C(C)OC(=O)c2cccn2C)cc1 (configuration not stated)
 : i	-0.02
86) O=C(Nc1nc2ccc(F)cc2s1)C1CCN(S(=O)(=O)c2cc([N+](=O)[O-])ccc2Cl)CC1
 : i	0.26
87) COc1ccc(-n2nc(C(=O)NCc3ccco3)c3c4ccccc4n(C)c3c2=O)cc1
 : i	-1
88) Cc1nsc(Nc2ccccc2)c1C#N
 : i	0.1
89) Cc1c(CCOC(=O)c2ccccc2)sc[n+]1CC(=O)c1ccc(Br)cc1
 : i	0.76
90) CC(/C=C/c1ccco1)=N\NC(=O)CNc1cccc(C)c1
 : i	-0.46
91) CN1CCc2c(sc3c2c(=O)n(-c2ccccc2)c2n[nH]c(=S)n32)C1
 : i	-0.47
92) COc1ccc(/C=N/NC(=O)c2cc(-c3ccccc3OC(C)C)nc3ccccc23)cc1CN1CCOCC1
 : i	-1.23
93) COc1ccc(C)cc1N(CC(=O)N1CCCCCC1)S(=O)(=O)c1ccc(C)cc1
 : i	1.19
94) CCOc1ccc(N(CC(=O)NC2CCCCC2)C(=O)CNC(=O)c2cccs2)cc1
 : i	0.44
95) Cc1ccc(C2(c3noc(CN(C)Cc4cccnc4)n3)CCCC2)cc1
 : i	-0.03
96) O=C(COc1ccccc1-c1ccccc1)N/N=C/c1ccccn1
 : i	0.01
97) COc1ccccc1C(=O)NC(=S)N1CCCc2ccccc21
 : i	-3.51
98) COc1ccc(/C(O)=C2/C(=O)C(=O)N(c3ncccn3)C2c2ccc(C(C)(C)C)cc2)cc1 (configuration not stated)
 : i	2.24
99) COc1ccc(-n2c(=O)c3ccccc3n(Cc3ccc(F)cc3)c2=O)cc1OC
 : i	0.13
100) COC(=O)COc1cccc2c(=O)n(CC(=O)N3CCCc4ccccc43)ccc12
 : i	3.41

Next records follow:
Screens in order – KCNQ2 inh	KCNQ2 inh baseline
101) Clc1ccc(-c2nnc(CSc3nnc(-c4cccs4)n3Cc3ccccc3)o2)cc1
 : i	-0.07
102) COc1ccc(NC(=O)c2nc[nH]c2C(=O)N[C@H](C)c2ccccc2)cc1
 : i	0.49
103) C=CCNC(=O)C1CC=CCC1C(=O)O (configuration not stated)
 : i	0.29
104) O=C1CC(c2ccc(F)cc2)SC(N(c2ccccc2)c2ccccc2)=N1 (configuration not stated)
 : i	-0.8
105) CC(C)Oc1ccc(CCC(=O)NNC(=S)NCc2ccccc2)cc1
 : i	0.75
106) CC(C)C(=O)N1CCN(c2ccc(NC(=O)c3ccc([N+](=O)[O-])o3)cc2)CC1
 : i	0.35
107) COC(=O)c1ccc(C2C(C(=O)c3ccc(C)o3)=C(O)C(=O)N2c2cc(C)on2)cc1 (configuration not stated)
 : i	0.14
108) CCOC(=O)/C(C#N)=C/c1cn(CCOc2ccccc2)c2ccccc12
 : i	0.74
109) Cc1ccccc1NC(=O)NC1(C(=O)NCCCN2CCOCC2)CCCCC1
 : i	0.24
110) O=C(C1CCCN(S(=O)(=O)c2ccccc2)C1)N1CCN(c2ccccc2)CC1 (configuration not stated)
 : i	-0.16
111) O=C(O)c1ccccc1C(=O)N1CCN(c2ncccn2)CC1
 : i	0.33
112) Cc1ccc(-n2c(SCC(=O)Nc3cc(C)on3)nc3ccccc3c2=O)cc1
 : i	-2.74
